NPYLR7 ag – activates Aedes aegypti NPYLR7 receptor; 270,000 tested, 0.15% active; activation, % at 10 µM; HEK293T NPYLR7/Galpha15, GCaMP6s calcium fluorescence; AID 1259423; in the data active = activation above about 40%;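 also: 0% = vehicle and 100% = reference agonist at the receptor; some compounds past the cut are filed as inactive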
NPYLR7 ag max-min – further read-out of NPYLR7 ag, marked with its call; activation, %; measured here: Max-Min RFU normalised activation; some inactives read as strong as hits;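 span of the calcium signal over five minutes; 0% = vehicle and 100% = native peptide agonist; compound fluorescence can raise it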
Numbers without * were called inactive; & = joins results of further samples. Some of the compounds tested. The share of hits here may be higher or lower than overall.

mol,NPYLR7 ag,NPYLR7 ag max-min
CCc1nc(-c2ccccc2O)n(-c2ccccc2)n1,5,4
Cc1cccc(CN2CCCC2C(=O)NCC(F)(F)F)c1 (configuration not stated),1,-1
C=CCNC(=O)c1ccccc1N1CCC(NC(=O)COC)CC1,-1,7
c1ccc(-c2ccc(CC3CCN(Cc4cccs4)CC3)cc2)cc1,0,6
O=C(c1ccco1)N1CCC2(CCCN(Cc3cccc(F)c3F)C2)C1 (configuration not stated),6,3
CC[C@@H]1Cn2c(c3nc(-c4ccccc4)nc-3n(C)c2=O)N1,-10,-15
O=S(=O)(Oc1ccc(CN(Cc2ccco2)S(=O)(=O)c2cccc3ccccc23)cc1)c1cccc(C(F)(F)F)c1,17,15
O=C(NC(c1ccccc1)c1cccs1)C1CCCO1 (configuration not stated),-24,-24
CCN(CC(=O)NC(C)C)S(=O)(=O)c1ccc(OC2CCCC2)c(C)c1,4,4
CC1c2cccn2CCN1Cc1cn(-c2ccccc2)nc1-c1ccc2c(c1)OCO2 (configuration not stated),10,0
CCCCC(CC)C(=O)N1CCN(c2nccc(-c3ccc4c(c3)OCO4)n2)CC1 (configuration not stated),-6,-9
CC1NCCN(c2ccc3c(c2)OCO3)C1=O (configuration not stated),-2,2
OCc1ccccc1CN1CCCC1,-10,-12
N#CCCn1c(=S)[nH]c2ccccc21,4,2
O=C(O)C(Cc1ccccc1)N1C(=O)/C(=C/c2ccc(Cl)cc2)SC1=S (configuration not stated),-10,-15
COc1cc(C=CC(=O)c2ccc3c(c2)OCCCO3)cc(Cl)c1OC,10,7
CC(C)(C)C(=O)C(Oc1ccc(Cl)cc1)n1ccnc1 (configuration not stated),3,3
COc1ccc(N2C(=O)C(=Cc3ccco3)SC2=S)cc1,17,15
Cn1c(NNC(=O)c2ccccc2[N+](=O)[O-])cc(=O)n(C)c1=O,5,3
COc1ccc(CN(C)c2cn[nH]c(=O)c2Cl)cc1F,-12,-15
CCn1cc(S(=O)(=O)NCc2ccc3[nH]c4c(c3c2)CCCC4)cn1,2,-4
CCOC(=O)N1CCN(C(=O)CSc2nc(=O)n3ccc(C)cc3n2)CC1,2,-1
O=C(c1csc(COc2ccccc2F)n1)N1CCOCC1,14,13
CCc1nc2n(n1)C(=O)C(C(c1ccc(OC)c(OC)c1)N1CCCCC1)S2 (configuration not stated),-1,35
Cn1cc(C(=O)OCC2CCN(CCNS(C)(=O)=O)CC2)c2ccccc21,9,-8
CC(C)CCN1C(=O)CCc2cc(NC(=O)C3CCCCC3)ccc21,28,20
Cc1noc(C)c1C(=O)N1CCC(=O)N(Cc2ccc(F)cc2)C(C(C)C)C1 (configuration not stated),9,-3
Cc1nnc(NC(=O)CSc2ccc(-c3ccco3)nn2)s1,8,-5
Cn1nnc2c(N3CCN(S(=O)(=O)Cc4ccccc4)CC3)ncnc21,0,2
Cn1nc(NC(=O)c2cccc3ccccc23)c2c1NC(=O)CC2c1ccco1 (configuration not stated),-12,-20

Entries from the list above with an NH in an aromatic ring, in the order listed:
mol,NPYLR7 ag,NPYLR7 ag max-min
N#CCCn1c(=S)[nH]c2ccccc21,4,2
COc1ccc(CN(C)c2cn[nH]c(=O)c2Cl)cc1F,-12,-15
CCn1cc(S(=O)(=O)NCc2ccc3[nH]c4c(c3c2)CCCC4)cn1,2,-4

Remaining list, next part.
mol,NPYLR7 ag,NPYLR7 ag max-min
O=C(/C=C/c1ccccc1)NCCSc1ncc(-c2ccccc2)[nH]1,3,1
O=S(=O)(Cc1ccc(Cl)cc1)c1ccc(NCc2ccc(F)cc2)nn1,-1,-6
CC1(C)CC(=O)C=C(Nc2ccc(F)cc2)C1,3,1
COc1ccc2sc(N(CCN3CCOCC3)C(=O)c3ccno3)nc2c1,0,16
CC(C)(C)C(=O)NC(NC(=S)Nc1ccc(C(=O)O)cc1)C(Cl)(Cl)Cl (configuration not stated),0,-2
COc1ccc(NC(=O)NCCCn2nc(-c3ccncc3)ccc2=O)cc1,15,5
O=C(CN1C(=O)c2ccccc2C1=O)N1CCC(Cc2ccccc2)CC1,2&0,-1&2
COC(=O)Cn1cnc2sc3c(c2c1=O)CCC3,3,0
CN(CC(=O)Nc1cccc(C(F)(F)F)c1)c1ccccc1,4,3
CC(=O)N1CCN(C(=O)c2cccc(Nc3c(Oc4ccc(Cl)c(C)c4)cnn(-c4cccc(F)c4)c3=O)c2)CC1,3,10
CC1(C(=O)O)CCCN1C(=O)c1cccc2ccccc12 (configuration not stated),-1,-3
Cc1ccc(C(=O)N(CC2CNCC2c2cccc(F)c2)C2CCCCC2)cc1 (configuration not stated),14,2
COC(=O)CC(NS(=O)(=O)c1ccc2c(c1)CC(=O)N2)c1ccc(C)cc1 (configuration not stated),7,3
Cc1ccnc(Oc2cc(NC(=O)CCn3cncn3)ccc2C)c1,0,5
CCC(=O)Nc1nnc(SCc2ccccc2C)s1,17,24
Cn1c(CCNC(=O)c2csc(Br)c2)n[nH]c1=S,0,-1
O=C(C1=CCCC1)N1CCCC(CNS(=O)(=O)c2cccs2)C1 (configuration not stated),7&-3,6&-4
Cc1cc(C)n(-c2c(C)c(C)nc3c(-c4ccccc4)cnn23)n1,2,2
Cc1cc(CN2CCC(CNC(=O)c3c(F)cccc3F)C2)oc1C (configuration not stated),3,2
COc1ccc(-c2nnc3ccc(OCCNC(=O)COc4ccc(C)c(C)c4)nn23)cc1,-4,-4
CCOC(=O)c1nn(-c2ccc(F)cc2)c(=O)cc1OS(=O)(=O)c1cc(C)c(C)cc1C,-2,5
CN(CC1COc2ccccc2O1)C(=O)c1ccc(-c2ccoc2)nc1 (configuration not stated),1,-5
CCC(C)(NC(=O)Nc1cc(C)nn1C)c1ccccc1 (configuration not stated),8&-3,4&-6
CN(C)CCOc1ccc(NC(=O)NC(c2cccs2)C2CCCC2)cc1 (configuration not stated),15,11
Cc1nc(C(C)NC(=O)CSc2ncnc3sc(C)cc23)n[nH]1 (configuration not stated),-6,-9
CC1(C(=O)NS(=O)(=O)Cc2ccccc2)CCN1C(=O)Cc1cc(F)ccc1F (configuration not stated),1,2
CCCc1c(C)nn(-c2ccc(C(=O)NC(c3ccccc3)c3ccccn3)cc2)c1C (configuration not stated),-9,-11
CCn1c(C)cc(O)c(C(c2ccc(Cl)cc2)c2c(O)cc(C)n(CC)c2=O)c1=O,2,3
CCC(C)NS(=O)(=O)c1cc(C(=O)OC)sc1Br (configuration not stated),5,3
CCCCOc1ccc(C2=N/C(=C\C=C\c3ccccc3OC)C(=O)O2)cc1,-1,-6

Seven compounds out of the list, arranged by SMILES length, descending:
mol,NPYLR7 ag,NPYLR7 ag max-min
COc1ccc(NC(=O)NCCCn2nc(-c3ccncc3)ccc2=O)cc1,15,5
CN(C)CCOc1ccc(NC(=O)NC(c2cccs2)C2CCCC2)cc1 (configuration not stated),15,11
Cc1nc(C(C)NC(=O)CSc2ncnc3sc(C)cc23)n[nH]1 (configuration not stated),-6,-9
Cc1ccnc(Oc2cc(NC(=O)CCn3cncn3)ccc2C)c1,0,5
CC1(C)CC(=O)C=C(Nc2ccc(F)cc2)C1,3,1
COC(=O)Cn1cnc2sc3c(c2c1=O)CCC3,3,0
CCC(=O)Nc1nnc(SCc2ccccc2C)s1,17,24

Continued.
mol,NPYLR7 ag,NPYLR7 ag max-min
CCCCN(CC(=O)Nc1cc(C(C)(C)C)nn1C(C)(C)C)C(=O)Nc1c(C(C)C)cccc1C(C)C,-3,1
Cc1cc(Br)ccc1NC(=O)CN(C)C(=O)CCNC(=O)c1ccccc1,7,5
COc1ccccc1C(C)NCc1ccc(N(C)CCC#N)cc1 (configuration not stated),4,0
Cc1cccc(-n2c(SCc3ccccc3C#N)nnc2-c2ccccc2F)c1,17,15
C=CCCC(=O)N1CCC(n2c(=O)oc3ccc(Cl)cc32)CC1,0,-2
CN(C(=O)C1CCN(Cc2ccc(Oc3ccccc3)cc2)CC1)C(c1ccc(F)cc1)c1ccccn1 (configuration not stated),-6,-16
Cc1c(C(=O)NCc2cccc(C(F)(F)F)c2)sc2nc3n(c(=O)c12)CCC3,5,1
COc1cc(C)c(S(=O)Cc2nnc(C(C)(C)C)o2)cc1OC (configuration not stated),7,4
CSc1nnc(CC2CCN(C(=O)C(=O)c3cccs3)CC2)n1C,-9,-12
CCOC(=O)c1cc(-c2ccc(N3CCN(C(=O)c4ccccc4OC)CC3)cc2)n(-c2ccccc2C)n1,24,18
Cc1ccc(-c2cc(C(F)(F)F)n3ncc(C(=O)Nc4ccc(C)c(C)c4)c3n2)cc1,2,2
COCCN(CC(=O)N(CCc1c[nH]c2ccccc12)Cc1ccc(C(F)(F)F)cc1)C(=O)c1ccc(Cl)cc1,-4,4
Cn1nnc2c(=O)n(Cc3ccc(Cl)cc3Cl)cnc21,0,6
Cc1ccc(OCc2cc(C(=O)NCCc3ccc(C(F)(F)F)cc3)no2)cn1,1&3,-2&-3
CN1CC(C(=O)NN)CC1=O (configuration not stated),-17,-22
CCOCCCN1C(=O)C(=Cc2ccccc2)NC1=S,-3,-2
CCN(CC)S(=O)(=O)c1cccc(NC(=S)N=P(c2ccncc2)(N(C)C)N(C)C)c1,-1,-6
CC1CCCC(NC(=O)CNC(=O)NCc2ccccc2)C1C (configuration not stated),-1,-3
CCC1(C)Oc2ccccc2C2CC(c3ccccc3)=NN21 (configuration not stated),10,1
Cn1nc(-c2ccccn2)c2c1NC(=O)CC2Cn1c(=O)oc2ccccc21 (configuration not stated),6,6
COc1ccc(-n2[nH]c(C)c(C3=C(N(C)Cc4ccccc4)C(=O)N(c4cc(C)ccc4OC)C3=O)c2=O)cc1,32,29
CC(C)NC(=O)Cn1cc(C(F)(F)F)ccc1=O,4,0
CC(NC(=O)c1cccn1Cc1ccccc1)C1CCCO1 (configuration not stated),-6,-4
O=c1oc2ccccc2n1CN1CCC(c2nc3ccccc3o2)CC1,3,10
Cc1nn(C)cc1NC(=O)Nc1ccccc1OC(F)(F)F,7,11
COc1cccc(C(=O)N2CCC(n3nccc3NC(=O)Nc3ccccc3OC)CC2)c1,-4,-4
CCC(C(=O)Nc1nnc(SCc2cc(OC)cc(OC)c2)s1)c1ccccc1 (configuration not stated),5,9
CCC1(c2ccccc2)NC(=O)N(CC(=O)N2CCCCCCC2)C1=O (configuration not stated),-14,-14
CCNC(=O)c1cnn(-c2ccc(C)cc2)c1CC,21,17
Cc1ccc(-c2ccsc2C(=O)N2CCC(C(N)=O)CC2)cc1,1,0
O=C(CCC1CCCC1)N1CCC(N2CCC(C(=O)N3CCOCC3)CC2)CC1,2,5
CN=c1scc(-c2ccccc2)n1N=Cc1cccc(Br)c1,5,3
CCOC(=O)CNC(=O)Nc1cccc(C2SCC(=O)N2c2cc(C)ccc2OC)c1 (configuration not stated),27,28
O=C1c2ccccc2C(=O)C1(c1nc2ccccc2[nH]1)[N+](=O)[O-],-1,-2
COc1ccccc1CN(Cc1cccc(C(F)(F)F)c1)Cc1nc(C(=O)NC2CC2)co1,18,19
CCOc1ccccc1CN(CC)Cc1cc(=O)n2c3c(cccc13)CCC2,-2,-11
CC=CCn1c(N/N=C\c2ccc(Cl)cc2)nc2c1c(=O)[nH]c(=O)n2C,-20,-19
CCCCCC(=O)NN=Cc1ccc([N+](=O)[O-])cc1,4,-1
O=C(Nc1ccccc1)C1CCCN1Cc1cccc(F)c1F (configuration not stated),9,11
NC(=NS(=O)(=O)c1ccccc1)c1ccc(Cl)cc1,-1,-10
Cc1cc(C(=O)NCC2CCOC2)cc(C)c1OC(F)F (configuration not stated),-24,-20
COc1ccc(CC(=O)O)cc1S(=O)(=O)Nc1ccc(F)c(F)c1F,8,5
O=C(Nc1nccs1)C1CCCN(C(=O)C2CCCc3ccccc32)C1 (configuration not stated),-4,-4
CCOc1ccc(-c2ccc3nnc(SCC(=O)N4CCOCC4)n3n2)cc1,-15,-10
O=C(NC(c1ccccc1)c1ccccc1)c1cc(-c2cccs2)nn1-c1ccc(F)cc1,5,12
Cc1ccc(-c2cccc(C(=O)N(CCO)Cc3nccs3)c2)o1,-7,-9
COC(=O)CCCC(=O)N1CCN(c2nc3nccc(-c4cccc(C)c4)n3n2)CC1,-1,-2
CN(Cc1cc(C(C)(C)C)n[nH]1)C(=O)c1c[nH]c2c(F)cccc2c1=O,3,1
Cc1ccc(OCCN(C)CC(O)CO)c(C)c1 (configuration not stated),3,1
CN(C)CCN(C)C(=O)c1cc2occc2n1CC1CCCCO1 (configuration not stated),-5,-8
Cc1ccc(-n2c(N)cc(=O)nc2SCC(=O)N2CCCc3ccccc32)cc1C,1,1
COc1cc(OC)cc(C2=NC(C)(C)CO2)c1,5,2
